# Source: PubChem BioAssay
# CtBP-E1A blk: qHTS Assay for Inhibitors of the CtBP/E1A Interaction | CtBP / adenovirus E1A interaction (AlphaScreen) | AID 651724, 2012 | activity change, % (concentration not given with the values) | 340,000 tested, 0.49% active | AlphaScreen GST-E1A/His-CtBP binding, 1536-well; stronger effect = lower value; control for the full effect not named in the record; in the data active means activity change below about -65%; inconclusive means about -30% to -65%; inactive means above about -30%; note: % is set by controls: 0 for no effect and ±100 for the full control effect
#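 Steps: dispense buffer (Tris pH 8.0, NaCl 300 mM, TCEP 1 mM, BSA, Tween 20); add 5X protein mix (GST-E1A, His-CtBP, 125 nM each); pin 23 nL compound; 2 h at 37 °C, dark; add 5X beads (50 ug/mL); 1 h; read.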
# TRPV1 PAM: HTS Assay for Compounds that Act as Potentiators of the Vanilloid Receptor 1; TRPV1-expressing cells, Fluo-8 calcium influx, capsaicin EC20 potentiation; host cell line not named in the record; control for the full effect not named in the record; potentiation, % at 8.33 µM; 320,000 tested, 0.02% active; AID 540277, 2011; active means potentiation above 80%; inconclusive means 30% to 80%; inactive means below 30%; note: 0% is about no effect
# Target sequence (Q8NER1 whole entry, looked up): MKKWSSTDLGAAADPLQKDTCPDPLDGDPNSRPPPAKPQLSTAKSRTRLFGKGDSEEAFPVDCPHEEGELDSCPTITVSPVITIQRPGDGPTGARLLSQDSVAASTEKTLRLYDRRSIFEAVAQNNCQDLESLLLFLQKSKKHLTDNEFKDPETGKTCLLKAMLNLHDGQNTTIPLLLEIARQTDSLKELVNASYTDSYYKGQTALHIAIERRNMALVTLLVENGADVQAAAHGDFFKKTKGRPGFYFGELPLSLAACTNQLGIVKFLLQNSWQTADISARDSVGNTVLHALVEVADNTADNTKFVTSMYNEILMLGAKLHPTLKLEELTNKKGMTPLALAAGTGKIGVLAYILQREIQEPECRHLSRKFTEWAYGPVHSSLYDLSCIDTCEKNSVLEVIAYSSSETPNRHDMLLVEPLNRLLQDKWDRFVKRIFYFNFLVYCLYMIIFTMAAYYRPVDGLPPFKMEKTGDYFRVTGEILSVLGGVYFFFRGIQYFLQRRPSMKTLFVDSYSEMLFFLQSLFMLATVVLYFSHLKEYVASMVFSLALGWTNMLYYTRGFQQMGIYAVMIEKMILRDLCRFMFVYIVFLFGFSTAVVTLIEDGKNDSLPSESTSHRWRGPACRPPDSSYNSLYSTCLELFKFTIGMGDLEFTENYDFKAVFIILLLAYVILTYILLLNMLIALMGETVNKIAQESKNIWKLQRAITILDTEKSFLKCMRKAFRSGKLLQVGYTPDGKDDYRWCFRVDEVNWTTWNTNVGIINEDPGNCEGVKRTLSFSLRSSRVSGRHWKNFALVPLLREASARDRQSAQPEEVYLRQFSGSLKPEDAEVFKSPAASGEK
#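 Fluo-8 calcium influx in TRPV1-expressing cells, kinetic read (ex 480/em 520 nm). Compound added and read 3 min for agonist activity, followed by capsaicin at EC20 final and 2 min further read for enhancement.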
# Menin MLL FP FL: qHTS Assay for Inhibitors Targeting the Menin-MLL Interaction in MLL Related Leukemias: Competition With Fluorescein Labeled MLL-derived Peptide; Fluorescence polarization, fluorescein-MLL peptide displacement from menin; FP activity change, % at 61.4 µM; 290,000 tested, under 10 active; AID 1766, 2009; inconclusive = falling polarisation curve, or a change in total fluorescence; inactive = total fluorescence flat and polarisation flat or rising; no compound was filed as active; the % refers to the polarisation; negative = inhibition;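 note: % of control where 0% means no effect; inhibitors lower the polarisation; unlabelled MLL peptide was the positive control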
# ClpP mod: qHTS Assay for Activators of ClpP | Potency, µM (series often up to 57.5 µM), inactives show at the highest dose activity change, negative = active | 340,000 tested, 1.9% active | purified B. subtilis ClpP, FRET peptide cleavage, 20 min | ATP-dependent Clp protease proteolytic subunit (Bacillus subtilis (strain 168)), P80244; active = well fitted falling curve with a large enough effect; inconclusive = small, poorly fitted or top-dose-only effect; inactive = no such curve, though single readings can be large or run the other way; note: potency is the fitted concentration of half-maximal effect; the source files actives as falling curves though it sought activators and does not explain the sign; nearly all actives have a fitted effect of over 65% in size; many hits overshoot -100%
# Target sequence (P80244 whole entry, looked up): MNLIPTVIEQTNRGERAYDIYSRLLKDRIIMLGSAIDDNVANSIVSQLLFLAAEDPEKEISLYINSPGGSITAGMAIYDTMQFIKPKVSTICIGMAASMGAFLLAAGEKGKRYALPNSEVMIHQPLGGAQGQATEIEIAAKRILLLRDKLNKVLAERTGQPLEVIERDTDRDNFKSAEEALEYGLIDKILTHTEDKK
#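 Buffer: 100 mM Tris/HCl pH8, 100 mM KCl, 0.05% low protease BSA, 2.5% glycerol, 0.01% Tween-20. ClpP 10 microg/mL final; 20 min RT; delta FRET normalized to ADEP and DMSO controls.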
# Sfp PPTase inh: qHTS Assay for Inhibitors of Bacillus subtilis Sfp phosphopantetheinyl transferase (PPTase); 4'-phosphopantetheinyl transferase ffp (Bacillus subtilis), Q9F4F7; Potency, µM, for the others: max response, negative = inhibition, hits mostly inhibitors; AID 1490, 2009; Biochemical Sfp PPTase activity, qHTS; 310,000 tested, 3.5% active; active = well fitted inhibition curve with a large enough effect; inconclusive = small, poorly fitted or top-dose-only effect, or another doubt; inactive = no such curve, though single readings can be large or run the other way;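 note: the enzyme is Sfp with the accession as filed and its product quenches rhodamine fluorescence; potency is the fitted concentration of half-maximal effect; 0% = enzyme reaction without inhibitor and -100% = no enzyme wells; top concentration of the series not given in the record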
#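 After 15 min at room temperature with compound, 15 nM Sfp received 5 uM rhodamine-CoA plus 12.5 uM BHQ-2-ybbR (50 mM Hepes pH 7.6, 10 mM MgCl2). Rate came from the fluorescence difference over 30 min, ex 525/em 598 nm.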
# gsp agonist: qHTS for Agonist of gsp, the Etiologic Mutation Responsible for Fibrous Dysplasia/McCune-Albright Syndrome: qHTS. Potency, µM (highest dose often 76.9 µM), for the others: at the top dose activation (cAMP increase), hits mostly activators. 340,000 tested, 0.13% active. gsp mutant cells, cAMP HTRF, 30 min; control for the full effect not named in the record; active = well fitted activation curve with a large enough effect; inconclusive = small, poorly fitted or top-dose-only effect, or another doubt; inactive = no such curve, though single readings can be large or run the other way; cell line not stated here;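 note: phosphodiesterase inhibitor Ro 20-1724 added with compounds to block cAMP breakdown; potency is the fitted concentration of half-maximal effect; nearly all actives have a fitted effect of over 60% in size; about a fifth of the inactives were tested at one dose only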
#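 Cells in DMEM/10% FBS with G418 were pretreated with compounds in DMSO plus […] (300 uM stock) for 30 min at 37C. cAMP was measured by HTRF (cAMP-d2 plus anti-cAMP antibody-K) after 30 min at room temperature.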
# gsp antagonist: qHTS for Antagonists of gsp, the Etiologic Mutation Responsible for Fibrous Dysplasia/McCune-Albright Syndrome: qHTS | gsp-mutant cells, cAMP HTRF, 30 min; control for the full effect not named in the record | 340,000 tested, 0.4% active | Potency, µM (doses to about 76.9 µM), for inactives: top-dose activity change, negative = inhibition, usual class: inhibitors; active = falling curve of any shape with a large fitted effect; inconclusive = falling curve, mostly with a smaller effect; inactive = flat or rising curve; cell line not stated here;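 note: intracellular cAMP measured with PDE inhibitor Ro 20-1724 present during compound exposure; potency is the fitted concentration of half-maximal effect; % is set by controls: 0 for no effect and ±100 for the full control effect; nearly all actives have a fitted effect of over 65% in size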
#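 Cells in G418 medium, seeded 16-24 h, 37C; buffer exchange to DPBS + 1 mM CaCl2, 0.5 mM MgCl2, 0.05% BSA; cpds in DMSO + […] (300 uM stock), 30 min 37C; HTRF cAMP detection.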
# The depositor's hits bear a star; ? = inconclusive; nt = not tested or not shown; & = joins results of further samples; [ ] = remark or other dose.
SMILES,CtBP-E1A blk,TRPV1 PAM,Menin MLL FP FL,ClpP mod,Sfp PPTase inh,gsp agonist,gsp antagonist
Cn1c(CNC(=O)C(C)(C)C)nc2ccccc21,0,-2,3.9,0.3%,-4%,?,6%
CN(C)c1ccc(CNC(=O)CN2C(=O)COc3ccc(S(=O)(=O)N4CCCC4)cc32)cc1,-6,5,2.9,-1.2%,16%,?,-13%
O=C(CN1CCOCC1)Nc1c2c(nc3ccccc13)N(Cc1ccccc1)CC2,9,5,1.4,22µM*,3%,-5%,-16%
CC(Cc1ccccc1)N(C)C(=O)CN1C(=O)c2ccccc2C1=O (stereo not given),-8,nt,nt,-1.7%,nt,11%,7%
Nc1cc2c(cc1[N+](=O)[O-])OCCO2,-5,1,0.4,1.0%,6%,-19%,-6%
CCOc1ccccc1N(CC(=O)O)S(=O)(=O)c1ccccc1,8,-3,1.4,0.8%,20%,3%,5%
CCC(NC(=O)c1ccccc1NC(=O)c1ccc(C)cc1)C(=O)O (stereo not given),12,1,4.0,-0.8%,15%,-5%,-13%
Cc1cc(OCC(=O)c2cccc(C(F)(F)F)c2)n2cnnc2n1,-12,-1,4.5,nt,31%[activator],11%,-4%
COc1ccc(C(=O)Nc2cc3c(cc2Cl)OCCCO3)cc1,1,-19,4.0,-0.5%,-5%,5%,3%
CCOc1nc(NCCN2CCOCC2)nc(NC(C)C)n1,1,2,4.2,0.7%,9%,0%,9%
COC(=O)CCCC(=O)N1CCC(CO)(CCc2ccccc2)CC1,-5,-30,-1.2,nt,15%,-21%,-6%
Cc1cccc(/C=N/N(CCO)C2=NS(=O)(=O)c3ccccc32)c1,-81*,9,-5.4,nt,10%,26%,-11%
O=C(O)C1C2C=CC(C2)C1C(=O)NC1CCS(=O)(=O)C1 (stereo not given),7,25,2.1,0.2%,10%,?,8%
CSc1ncc(-c2ccc(Cl)cc2)[nH]1,-5,nt,-2.4,nt,-16%,11%[15.4 µM],-3%
O=S(=O)(c1cc(Cl)ccc1Cl)N1CCCCC1,19,20,1.7,1.8%,-18%,15%,-10%
Cc1cc(C)c(NC(=S)N(CCCN2CCN(C)CC2)Cc2cccs2)c(C)c1,-2,-6,2.3,nt,3%,-3%[15.4 µM],-6%
Cc1ccc(S(=O)(=O)NCC(=O)N(CC(=O)NCC2CCCO2)CC2CCCO2)cc1 (stereo not given),-5,8,-2.4,-7.9%,1%,-10%[15.4 µM],5%
CCCCOc1ccc(-c2cc(C(=O)NNC(=S)NCC)c3ccccc3n2)cc1,-15,-10,1.4,27%,19%,-6%,4%
COc1ccc(N2CCN(c3nc(NC(C)(C)C)nc(N4CCCCC4)n3)CC2)cc1,?,17,-0.4,-16%,-6%,12%,9%
CC(C)OC(=O)Cn1nc(C(F)(F)F)c2c1CCCC2,7,-9,7.3,nt,15%,-20%,4%
C[C@@H](C(=O)NCCc1c[nH]c2ccccc12)[C@@H]1C[C@@]1(C)[C@@H](NC(=O)OCc1ccccc1)c1ccccc1,-6,24,4.7&3.5,-9.3%,17%&11%,nt,-13%
O=C(Nc1cccc(S(=O)(=O)N2CCCCC2)c1)Nc1ccc(Cl)cc1Cl,0,-1,6.2,nt,6%,15%,?
CCc1c(SCCC(=O)O)nc2ccccc2c1C,-6,?,-4.3,nt,3%,33%[15.4 µM],-65%
CS(=O)(=O)Nc1ccc(C(=O)NCC2CCCO2)cc1 (stereo not given),-1,-9,4.5,-1.8%,9%,-9%,4%
COCCn1c(N2CCN(c3ccc(OC)cc3)CC2)nc2c1c(=O)n(C)c(=O)n2C,3,-20,-1.1,-0.7%,-5%,4%,-25%
Cc1nn(C)cc1C1C2=C(CC(C)(C)CC2=O)N(c2ccccc2)C2=C1C(=O)CC(C)(C)C2,-12,14,-2.8,?,3%,?,-13%
Cc1cccc(NC(=O)Cn2cnc3c(cnn3-c3ccc(F)cc3)c2=O)c1C,0,3,2.7,-10%,?,-20%,7%
Cc1ccc(C)n1-c1ccc(C(=O)Nc2ccccc2F)cc1,2,5,0.4,nt,14%,3%[15.4 µM],5%
CCC(=O)Nc1ccc(-c2cc3ccccc3oc2=O)cc1,-10,2,3.0,nt,3%,16%,13%
CCCCC(=O)OCC(=O)c1ccc(OCC)cc1,7,-13,-4.4,-1.3%,-10%,8%,11%
CN(C)c1ccc(/C=N\NC(=O)c2cccc3cc[nH]c23)cc1,nt,-9,0.2,-12%,-3%,-1%,-7%
O=C(CSc1nc(-c2ccncc2)nn1CC(=O)N1CCCCC1)NC1CCCC1,4,-17,-3.3,-0.8%,21%,6%,4%
C=CCSC1=N/C(=C\c2ccc(C(=O)O)cc2)C(=O)S1,0,5,1.1,nt,40µM*,2%[15.4 µM],0%
O=C(COc1ncnc2ccccc12)Nc1cccc([N+](=O)[O-])c1,0,6,-0.4,-2.5%,10%,-2%[15.4 µM],4%
Cc1[nH]cnc1CSCCN,-23,?,1.8,-1.5%,7.1µM*,-19%,0%
COCCN1Cc2cc3cc(C)ccc3nc2SC1=Nc1ccc(OC)cc1,-5,2,-11,nt,20µM*,-8%,-23%
CC1(C)Cc2nc3sc4c(=O)[nH]cnc4c3cc2CS1,-1,-11,0.0,-28%,6%,-11%,-12%
Cc1cc(S(=O)(=O)NC2CCCCC2)ccc1OCC(=O)NCc1cccnc1,-9,5,-2.7,0.1%,15%,34%,-3%
O=C(CCCN1C(=O)[C@H]2CC=CC[C@H]2C1=O)NCc1nc(-c2ccc(Cl)cc2)no1,0,5,nt,-1.2%,12%,1%,-6%
CC1=CC(c2ccccc2)n2nc(N3C(=O)CCC3=O)nc2N1 (stereo not given),1,-24,3.4,28µM*,-8%,19%,7%
COc1ccccc1NC(=O)c1oc2ccc(C)cc2c1C,26,5,0.2,-6.0%,-12%,10%,-2%
Cc1ccc(S(=O)(=O)N2CCCCC2)cc1C(=O)NCc1ccccn1,2,8,0.8,nt,11%,-1%[15.4 µM],0%
O=C(C(=O)N1CCCC1)c1c(-c2ccccc2)[nH]c2ccccc12,nt,-5,1.1,1.2%,13%,35%,-5%
Cc1ccc(NC2=NCC(=O)N2Cc2cccs2)cc1C,15,-10,0.6,-0.3%,6%,28%,4%
COc1ccc([N+](=O)[O-])cc1NC(=O)N(C)Cc1ccco1,nt,-19,-14,-0.6%,6%,-20%,-3%
CCN1C/C(=C/c2cccs2)c2nc3ccccc3c(C(=O)O)c2C1,-1,-5,?,nt,45µM*,-11%[15.4 µM],8%
CCCCCOc1ccc(Br)cc1CSC(=N)N,nt,-11,1.6,-2.8%,-24%,-31%[inhibitor],7%
CCN(C(=O)CN1C(=O)NC2(CCCC2)C1=O)c1nc2c(C)cccc2s1,6,nt,nt,0.7%,nt,?,nt
O=C(NCc1cccc(Cl)c1)c1ccc(CS(=O)Cc2ccccc2Cl)o1 (stereo not given),0,2,-2.7,-1.0%&-1.6%,9%,-6%,-10%
CSc1c(-c2ccccc2)nc2ccccc2c1C(=O)O,-6,7,3.6,0.4%,10%,17%,-2%
Cc1nc2c(c(=O)c3ccccc3n2C)c(=O)n1-c1ccc(F)cc1,nt,-4,0.8,-0.9%,1%,3%,1%
Cc1ccccc1OCC(=O)NCC(=O)OCC(=O)c1ccc2ccccc2c1,-3,16,-0.3,17%&26%,8%,-31%,-23%
COc1ccc(NC(=O)C(C)Sc2ccccc2)cc1 (stereo not given),4,-3,3.7,5.3%,6%,-49%[inhibitor],-12%
Cc1cccc(OCC(=O)Nc2nnc(S(=O)(=O)N3CCCCC3)s2)c1,1,11,1.8,-5.1%,22%,-41%,-12%
COc1cc(C(F)(F)F)ccc1C(=O)NCCc1ccco1,6,-5,-1.4,-2.8%,3%,-30%[inhibitor],-9%
O=c1cnnc(SCc2ccc([N+](=O)[O-])cc2)[nH]1,-2,-2,-0.1,nt,7%,-3%,2%
COC(=O)c1c(NC(=O)c2ccccc2N(C)S(=O)(=O)c2ccccc2)sc2c1CCCC2,11,-7,-2.0,?,-1%,-3%,-3%
c1cncc(CSc2ccc(-c3ccc4c(c3)OCO4)nn2)c1,-19,?,-1.1,nt,-14%,?,-12%
CCc1cccc(NC(=O)C2CCCN2C(=O)Nc2ccc(C)cc2)c1 (stereo not given),9,-6,2.8,nt,11%,?,2%
CCOC(=O)Cc1c(C)nc2c(-c3ccccc3)c(C)nn2c1C,12,-13,3.1,0.4%,9%,-11%,16%

# Next section:
SMILES,CtBP-E1A blk,TRPV1 PAM,Menin MLL FP FL,ClpP mod,Sfp PPTase inh,gsp agonist,gsp antagonist
COc1ccc(S(=O)(=O)NCCS(=O)(=O)N2CCN(c3ccccc3)CC2)cc1,1,-6,nt,nt,nt,3%[15.4 µM],6%
O=C(CSc1nnc(-c2ccc(C(F)(F)F)cn2)o1)Nc1ccccc1Cl,?,-5,4.7,-1.8%,71µM*,-11%[15.4 µM],5%
Cc1ccc(S(=O)(=O)N2CCN3CCCC3C2)cc1 (stereo not given),nt,18,2.1,-2.2%,11%,10%,-3%
COc1cccc(C2(c3cccc(OC)c3)CC2C(=O)Nc2ccccc2Cl)c1 (stereo not given),-5,-1,2.4,-24%,2%,-3%[15.4 µM],2%
CN1CCN(c2ccc(NC(=O)C(C)(c3ccccc3)c3ccccc3)cc2)CC1,-29,?,6.4,-3.2%,-5%,?,13%
CCCCCC(=O)N(CN1C(=O)CCC1=O)c1ccccc1,3,-1,-3.1,1.0%,9%,?,6%
O=C1C2C(C(=O)N1CC1CCCO1)C1C=CC2C12CC2 (stereo not given),1,-1,2.1,-9.2%,13%,-1%,11%
